Vaccinia mCherry – inhibitors of vaccinia virus infection (mCherry reporter signal); 310,000 compounds, 0.63% hits; AID 720579; Potency, µM (doses to about 36.5 µM), without a hit: top-dose activity change, negative = inhibition, usual class: inhibitors; Vaccinia virus mCherry reporter infection, fluorescence; about a quarter of the inactives have no number; active = well fitted inhibition curve with a large enough effect; inconclusive = small, poorly fitted or top-dose-only effect; inactive = no such curve, though single readings can be large or run the other way; tested in A549 cells; note: nearly all actives have a fitted effect of over 35% in size; inactives centre near -10
Vaccinia Venus – inhibitors of vaccinia virus (Venus reporter); Vaccinia virus Venus reporter expression, fluorescence; Potency, µM (doses to about 36.5 µM), for the others: top-dose activity change, negative = inhibition, hits mostly inhibitors; AID 720580; 330,000 compounds, 0.46% hits; active means well fitted inhibition curve with a large enough effect; inconclusive means small, poorly fitted or top-dose-only effect; inactive means no such curve, though single readings can be large or run the other way; tested in A549 cells; note: nearly all actives have a fitted effect of over 30% in size; inactives centre near -10
An asterisk follows results filed as active; i = inactive; ? = inconclusive; . = no result given; & = joins results of further samples; [ ] = remark or other dose. % is set by controls: 0 for no effect and ±100 for the full control effect; potency is the fitted concentration of half-maximal effect.

compound	Vaccinia mCherry	Vaccinia Venus
Cc1ccc(-c2cn3c(n2)sc2cc(C(=O)NC4CCCCC4)ccc23)cc1	?	?
O=S(=O)(c1cccc(Br)c1)N1CCN(c2nc(-c3cccs3)nc3ccccc23)CC1	-9%	-18%
COc1ccc(NC(=O)c2cc(-c3ccc(F)cc3C)n[nH]2)cc1OC	15%	-8%
COc1ccc(S(=O)(=O)NC2CCCCCC2)c(OC)c1	-10%	-18%
COc1ccc([C@H]2CC(=O)C[C@@H](CCn3cc(-c4nccn4C)nn3)O2)cc1	38%[activator]	0%
CCN(CCCNC(=O)c1cc2c(=O)[nH]c3ccc(C)cc3c2s1)c1ccc(C)cc1	-1%	-12%
CCOC(=O)c1cn(Cc2cccc(C)c2)nn1	i	-11%
CC(=O)Nc1ccc(Oc2ccc([N+](=O)[O-])cc2Cl)cc1	-8%	-4%
CCCCNC(=O)C1C(c2ccc(OC)cc2)=Nc2ccccc2N1C(=O)c1cccnc1 (stereo not drawn)	-11%	-8%
O=C(Nc1ccc(Cl)c(Cl)c1)N1CCOCC1	-6%	-12%
COC(=O)c1ccc(C(=O)OC)c(NC(=O)CSCc2ccc(Br)cc2)c1	0%	-8%
COc1ccc(-c2cc3c(=O)n(CC(=O)Nc4ccc(Cl)cc4)nc(C)n3n2)cc1	-8%	-4%
Cc1ccc(C)c2nc3sc(C(=O)N4CCOCC4)c(N)c3cc12	-28%	-12%
CCNC(=S)NNC(=O)C1CCN(Cc2ccccc2)CC1	-19%	-21%
c1cncc(CNc2cccc(-c3nc4ccccc4[nH]3)c2)c1	-21%	-14%
COC(=O)c1c(-c2ccc(OC)cc2)oc2ccc(-c3ccc(OC)nc3)cc12	-10%	-15%
COC(=O)C1=CN(c2cc(C)cc(C)c2)C=C(C(=O)OC)C1c1cccc(F)c1	-6%	-10%
Cc1ccccc1-n1c(SCC(=O)N2CCCCC2)nc(O)cc1=O	i	-5%
CCOc1ccc(N2C(=O)C(C)CNC2=S)cc1 (stereo not drawn)	i	-3%
O=C(Nc1nnc(S(=O)(=O)N2CCOCC2)s1)c1ccccc1Cl	13%&-3%	-8%&-9%
CN1CC(=O)N(CC(=O)Nc2cccc3ccccc23)C1=O	i	-3%
CC1(C)Nc2ccccc2N(CCC(=O)N2CCOCC2)C1=O	.	-20%
CCN(CC)S(=O)(=O)c1ccc(NC(=S)NC(=O)CC(C)C)cc1	-8%	-18%
CCOC(=O)N1CCN(C(=O)CSCc2ccc(Br)cc2)CC1	-11%	-20%
O=C1OC(c2ccc3c(c2)OCO3)=N/C1=C\c1ccc(C(=O)O)cc1	-4%	-20%
CN(C)CCCN(C(=O)c1ccc(C(=O)c2ccccc2)cc1)c1nc2c(F)cccc2s1	-21%	-18%
O=C(NCC(c1ccco1)N1CCN(c2ccc(F)cc2)CC1)C(=O)NC1CCCC1 (stereo not drawn)	-1%	-5%
CN(C)CCNS(=O)(=O)c1ccc(N2CCN(c3ccc(F)cc3)CC2)c([N+](=O)[O-])c1	-27%	?
COc1ccc(-n2c(SCC(=O)NCc3ccccc3)nc3c([nH]c4ccccc43)c2=O)cc1	-8%	-1%
N#Cc1nnn2c1nc(N)c1c(F)cccc12	i[7.34 µM]	0%[7.34 µM]
O=Cc1cccn1-c1c(C(=O)O)cnn1-c1ccccc1	-3%	-9%
CCC(C)(C)C(=O)Nc1ccc(C(N)=O)cc1	.	-12%
CN(Cc1cnccn1)Cc1nc(Cc2cccc(F)c2)no1	-25%	-13%
CCCCOc1ccc(OCCCN2CCOCC2)cc1	-17%	-11%&-9%
Cc1ccc(SCC(=O)Nc2cccc(-c3nc4cc(Cl)ccc4o3)c2C)cc1	-10%	-6%
CC(C)C(=O)Nc1cccc(C(=O)Nc2nnc(C(C)C)s2)c1	-5%	-13%
CSCCC(c1nnnn1-c1c(C)cccc1C)N1CCC2(CC1)C(=O)NCN2c1ccccc1 (stereo not drawn)	-1%	-8%
CS(=O)(=O)c1ccc(C(=O)N2CCN(C(=O)c3ccco3)CC2)cc1	-4%	6%
O=C(Nc1ccc(Cl)cn1)c1cccnc1	.	-34%
CC(=O)c1cccc(NC(=O)C2C(c3ccccc3)C2(Cl)Cl)c1 (stereo not drawn)	-14%	-11%

4 structures from above, arranged by number of heavy atoms, low to high:
compound	Vaccinia mCherry	Vaccinia Venus
O=C(Nc1ccc(Cl)cn1)c1cccnc1	.	-34%
CCOC(=O)N1CCN(C(=O)CSCc2ccc(Br)cc2)CC1	-11%	-20%
Cc1ccc(SCC(=O)Nc2cccc(-c3nc4cc(Cl)ccc4o3)c2C)cc1	-10%	-6%
O=C(NCC(c1ccco1)N1CCN(c2ccc(F)cc2)CC1)C(=O)NC1CCCC1 (stereo not drawn)	-1%	-5%

Pulled by structure from the list above:
compound	Vaccinia mCherry	Vaccinia Venus
CN(C)CCNS(=O)(=O)c1ccc(N2CCN(c3ccc(F)cc3)CC2)c([N+](=O)[O-])c1	-27%	?
CCCCNC(=O)C1C(c2ccc(OC)cc2)=Nc2ccccc2N1C(=O)c1cccnc1 (stereo not drawn)	-11%	-8%

(cont.)
compound	Vaccinia mCherry	Vaccinia Venus
COCC1CCN(C(=O)C2CCC(=O)N(CCc3cccc(F)c3)C2)CC1 (stereo not drawn)	-9%	-6%
CCOc1ccc(C(=O)N[C@H](C(=O)O)C(C)C)cc1	-6%	-5%
COC(=O)c1ccccc1OCc1cccc(C)n1	-18%	-8%
CCCCN1C[C@H](CSC)[C@@H](CC(=O)Nc2ccc(OC)cc2)C1=O	0%	-4%
CCOP(=O)(OCC)C(NCc1ccccc1)c1ccc(Br)cc1 (stereo not drawn)	-15%	-4%
COC(=O)c1cc(OC)c(OC)cc1NC(=O)Nc1ccccc1F	i	-9%
Cc1cc(CNC(=O)c2cnn(-c3nccc(-c4ccc5c(c4)OCO5)n3)c2C2CC2)on1	-29%	-23%
CCOCC(=O)Nc1nc2c(s1)C(=O)CC(C)(C)C2	i	-9%
Cc1cccc(C)c1-n1nnnc1C(C1CC1)N1CCN(C/C=C/c2ccccc2)CC1 (stereo not drawn)	i	-5%
CC(=NCCCn1ccnc1)c1c(C)[nH]n(-c2ccc([N+](=O)[O-])cc2)c1=O	-17%	-10%
C[C@]12CC[C@H](O)C[C@@H]1CC[C@@H]1[C@@H]2CC[C@]2(C)[C@@H](C(=O)O)C[C@@H]12	i	-12%
O=C1NC(c2cccc3ccccc23)Nc2ccccc21 (stereo not drawn)	?	?
CCCC(=O)NC(=S)c1c(C)n(C)n(-c2ccccc2)c1=O	0%	-9%
CC(=O)O[C@@]1(C(C)=O)CCC2C3C=C(C)C4=CC(=O)CCC4(C)C3CCC21C (stereo partly drawn)	-7%	-2%
CCC(=O)c1ccc(OC(=O)/C=C/c2cc(OC)c(OC)c(OC)c2)cc1	-5%	-6%
CCCCCOC(=O)C(C)c1c(C)[nH]c(=S)[nH]c1=O (stereo not drawn)	.	-9%
COC(=O)C1=C(C)NC2=C(C(=O)CC(C)(C)C2)C1c1ccsc1 (stereo not drawn)	.	-12%
O=C(NC1CCCC1)C1=COCCO1	.	-11%
COc1ccc(C)cc1NC(=O)C(C)N1CCOCC1 (stereo not drawn)	i	-7%
COc1ccc(C(C#N)=C2C=CC(=NO)c3ccccc32)cc1	-7%	-27%

Full records, looked up by structure.
CCOCC(=O)Nc1nc2c(s1)C(=O)CC(C)(C)C2 is listed as Vaccinia mCherry: i; Vaccinia Venus: -9%
COc1ccc(C(C#N)=C2C=CC(=NO)c3ccccc32)cc1 is listed as Vaccinia mCherry: -7%; Vaccinia Venus: -27%

Continuation.
compound	Vaccinia mCherry	Vaccinia Venus
O=C(O)Cn1nnc(-c2ccccc2)c1COc1ccccc1	-4%	0%
CCCc1nnc(NS(=O)(=O)c2ccc(OC)cc2)s1	i	-4%
O=C(CSCc1ccccc1)N/N=C/c1ccc(OCC(=O)N2CCCCC2)cc1	i	-14%
O=C(CN1C(=O)NC2(CCCC2)C1=O)N1CCc2ccccc2C1	i	-16%
CCOC(=O)CNC(=O)C1(NC(=O)CNC(=O)OCc2ccccc2)CCCC1	-14%	-8%
CC(C)C(C(=O)NCc1ccco1)N(C(=O)CNS(=O)(=O)c1ccccc1)c1ccccc1 (stereo not drawn)	i	7%
COc1cc(Cl)cc(C(=O)O)c1OCC(=O)O	-6%	7%
CN(C(=O)c1ccc(NC(=O)Cc2cccc(NC(=O)C3CCN(C(=O)C4CCCC4)CC3)c2)cc1)C1CC1	5%	0%
Cc1ccc2oc(=O)c3cc(C(=O)N4CCN(c5ccccc5)CC4)sc3c2c1	7%	-3%
CN(c1ncnc2c1c(-c1ccccc1)cn2-c1cccc(Cl)c1)C1CCCCC1	-16%	-6%
CC(C)n1c(SCc2ccc(Cl)cc2)nc2c1c(=O)[nH]c(=O)n2C	.	-16%
COc1ccc(C(c2nnnn2CS(=O)(=O)c2ccc(C)cc2)N2CCN(Cc3ccccc3)CC2)cc1 (stereo not drawn)	-10%	-17%
O=C(CC1C(=O)NCCN1CC1CCCCC1)NCCCN1CCOCC1 (stereo not drawn)	i	-12%
COc1ccc(C2C(C(=O)O)CCC(=O)N2c2ccc(C)cc2)cc1OC (stereo not drawn)	i	-18%
O=C(CCC1CCCN(C(=O)Cn2cnnn2)C1)NCc1ccccc1F (stereo not drawn)	i	-4%
COC(=O)COc1ccc2c(-c3ccc(OC)cc3)cc(=O)oc2c1	.	-12%
COc1ccccc1OCC(=O)Nc1ccc(O)cc1C(=O)O	.	-4%
COc1ccc(CC(=O)Nc2ccccc2-c2ccccc2)cc1OC	-20%	-19%
O=C(NCC(c1ccco1)N1CCN(c2ccc(F)cc2)CC1)c1ccco1 (stereo not drawn)	-17%	-7%
CC12CC3(C)CC(C)(C1)CC(C(=O)Nc1nn[nH]n1)(C2)C3	-23%	-17%
CCCOC(=O)CSc1nnc(-c2ccccc2)o1	5%	14%
CCCCOC(=O)c1ccc(NC(=O)c2csnn2)cc1	-1%	-7%
COc1cccc(NC(=O)CSc2nnc3scc(-c4ccc(Cl)cc4)n23)c1	-5%	-9%
CCCn1c(SCC(=O)NC2CCCC(C)C2C)n[nH]c1=O (stereo not drawn)	.	-5%
CCOc1ccccc1NC(=O)Nc1nnc(N2CCCCCC2)s1	-12%	-16%
Fc1cccc(CSc2ncnc3c2ncn3C2CCCCO2)c1 (stereo not drawn)	-13%	-18%
CC1(C)CC(CC(=O)NNc2nc(-c3ccccc3)cs2)C(=O)O1 (stereo not drawn)	-9%	-10%
COc1ccc(-c2sc3ccccc3c2-c2ccc(OCCN3CCOCC3)cc2)cc1	-20%	-12%
Fc1ccc(-n2nc(-c3ccccc3)c3cnc4ccccc4c32)cc1Cl	-10%	4%
COCCNC(=O)CSc1nc2sccc2c(=O)n1-c1ccccc1	-7%	-5%
CC(=O)c1cccc(NC(=O)COC(=O)c2ccccc2OCc2cccc(Br)c2)c1	-20%	-10%
COc1ccc(Cc2noc(CN3CCCN(Cc4ccc(F)cc4)CC3)n2)cc1OC	-8%	-8%
COc1cc2cc(CCCOC(=O)c3ccc(C(F)(F)F)cc3)oc(=O)c2cc1OC	i	-15%
Cn1ccnc1P(=S)(c1nccn1C)c1nccn1C	-10%	-10%
COc1ccccc1CNC(=O)C(=O)NCC1OCCN1S(=O)(=O)c1ccccc1 (stereo not drawn)	-22%	-15%
COc1ccccc1NC(=O)COC(=O)c1ccc([N+](=O)[O-])s1	-29%	-15%
Cc1nn2c(COc3ccc(NC(=O)c4ccccc4)cc3)nnc2c2ccccc12	i	-22%
Cc1ccc(C(=O)OCC(=O)Nc2ccccc2Cl)c(O)c1	-18%	3%
Cc1ccc(C)c(N2CCN(C(=O)Cn3c(=O)oc4cc(S(=O)(=O)N5CCCC5)ccc43)CC2)c1	-5%	-22%
O=[N+]([O-])c1ccc(N2CCN(c3ccc(F)cc3)CC2)cn1	-21%	3%
CCN(CC(=O)Nc1ccc2c(c1)OCCO2)C(=O)c1ccc(C)c(S(=O)(=O)N2CCOCC2)c1	i	-8%
COc1cc(NC(=O)COCc2cc(-c3ccc4c(c3)OCO4)on2)c(OC)cc1Cl	-7%	-11%
O=C(NC(Cc1nn[nH]n1)C(=O)OCc1ccccc1)OCc1ccccc1 (stereo not drawn)	-18%	-17%
CCOC(=O)C1=C(C)N=C2SCCC(=O)N2C1c1ccc(OCc2ccccc2)cc1 (stereo not drawn)	-6%	3%
Fc1cccc(Cc2c(-c3ccc(Cl)cc3)nc3c(Cl)cc(C(F)(F)F)cn23)c1	-2%	2%
CN(C(=O)c1cc2c(=O)oc3ccccc3c2s1)c1ccc(F)cc1	-14%	-16%
COc1cccc(/C=C/C(=O)NNC(=O)c2ccncc2)c1	-16%	?
COc1ccc(NC(=O)c2nc[nH]c2C(=O)N(C)Cc2ccccc2)cc1	i	-20%
COc1ccc(OCCC(=O)Nc2ccc(S(N)(=O)=O)cc2)cc1	0%	-2%
CN(C(=O)COC(=O)C1CCN(S(=O)(=O)c2ccc3c(c2)OCCO3)CC1)C1CCS(=O)(=O)C1 (stereo not drawn)	i	-11%
CN1CCC(N2CCN(C3CN(Cc4ccc(F)cc4)S(=O)(=O)C3)CC2)CC1 (stereo not drawn)	26%	-1%
CC(=O)Nc1ccc(C(=O)NNC(=O)Cc2ccccc2)cc1	-15%	3%

High-throughput results (PubChem BioAssay)
